NOMO-1 viab: STK33 inhibitor candidate reducing NOMO-1 cell viability; inhibition, % (concentration not given with the values); NOMO-1 AML viability, CellTiter-Glo luminescence, 72 h; actives 7.5% (n = 37,000);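 active = most replicates above 80%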;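 note: wells of about 30 µL received 25 nL stock; 0% = median of vehicle wells and 100% = reference inhibitor level; the first replicate is given; inactives centre near 10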
An asterisk follows results filed as active.

NC(=O)CSc1nc2ccccc2[nH]1
- NOMO-1 viab: 16

O=C(Nc1cccs1)N1CCN(C(=O)C2CCCO2)CC1 (stereo unspecified)
- NOMO-1 viab: 39

CCN(CC(=O)Nc1cccc(OC)c1)S(=O)(=O)c1ccc2ccccc2c1
- NOMO-1 viab: 30

Cc1noc(C)c1NC(=O)N(C)C[C@H]1Oc2c(NC(=O)Nc3ccc(C(F)(F)F)cc3)cccc2C(=O)N([C@@H](C)CO)C[C@@H]1C
- NOMO-1 viab: 30

C[C@@H]1CCCCO[C@H](CN(C)C(=O)Nc2cccc3ccccc23)[C@@H](C)CN([C@H](C)CO)C(=O)c2cc(NS(=O)(=O)c3ccccc3)ccc2O1
- NOMO-1 viab: 41

Cc1noc(C)c1S(=O)(=O)Nc1ccc2c(c1)C(=O)N([C@H](C)CO)C[C@H](C)[C@H](CN(C)S(C)(=O)=O)OCCCC[C@@H](C)O2
- NOMO-1 viab: 22

CC(C)NC(=O)N(C)C[C@H]1Oc2ccc(NC(=O)C3CCCCC3)cc2C(=O)N([C@@H](C)CO)C[C@@H]1C
- NOMO-1 viab: 13

C[C@H]1CN([C@@H](C)CO)C(=O)c2cccc(NC(=O)c3cnccn3)c2O[C@H]1CN(C)Cc1ccc(-c2ccccc2)cc1
- NOMO-1 viab: 42

O=C1NCCN1CCNC(=S)Nc1cc(C(F)(F)F)cc(C(F)(F)F)c1
- NOMO-1 viab: 9

COc1ccc(S(=O)(=O)Nc2cccc3c2O[C@@H](CN(C)S(=O)(=O)c2cccs2)[C@@H](C)CN([C@@H](C)CO)C3=O)cc1
- NOMO-1 viab: -11

C[C@H]1CN([C@@H](C)CO)C(=O)c2cccc(NS(=O)(=O)c3cccs3)c2O[C@H]1CN(C)S(=O)(=O)c1ccc(F)cc1
- NOMO-1 viab: 21

C[C@@H]1CN([C@@H](C)CO)C(=O)c2cc(NC(=O)C3CCCCC3)ccc2O[C@H]1CN(C)S(=O)(=O)c1ccc(F)cc1
- NOMO-1 viab: 34

CCc1ccc(OCC(=O)Nc2cccc(-c3nc4cc(Cl)ccc4o3)c2C)cc1
- NOMO-1 viab: 31

COc1ccc(S(=O)(=O)Nc2cccc3c2O[C@H](CN(C)S(=O)(=O)c2ccc(F)cc2)[C@H](C)CN([C@@H](C)CO)C3=O)cc1
- NOMO-1 viab: 59

Cc1c(Cl)cccc1NC(=O)COc1ccc(C(=O)Nc2cccc(C(F)(F)F)c2)cc1
- NOMO-1 viab: 49

c1ccc(OCCSc2nnc3n(-c4ccccc4)c4ccccc4n23)cc1
- NOMO-1 viab: 20

CNC[C@@H]1Oc2ccc(NS(=O)(=O)c3cccs3)cc2C(=O)N([C@H](C)CO)C[C@H]1C
- NOMO-1 viab: 0

C[C@H]1CN([C@@H](C)CO)C(=O)c2cc(NS(=O)(=O)c3ccccc3)ccc2O[C@@H]1CN(C)Cc1ccncc1
- NOMO-1 viab: 13

Cn1nc2c3ccccc3n(Cc3ccccc3)c2nc1=S
- NOMO-1 viab: 60

C[C@@H]1CN([C@H](C)CO)C(=O)Cc2cc(NC(=O)Cc3ccccc3)ccc2O[C@@H]1CN(C)C(=O)NC1CCCCC1
- NOMO-1 viab: -17

C[C@H]1CN([C@@H](C)CO)C(=O)c2cccc(NC(=O)Nc3ccc4c(c3)OCO4)c2O[C@@H]1CN(C)Cc1ccncc1
- NOMO-1 viab: 15

CS(=O)(=O)N(CC(=O)Nc1c(F)cccc1F)c1cccc([N+](=O)[O-])c1
- NOMO-1 viab: 35

Cc1ccc(S(=O)(=O)Nc2ccc3c(c2)CC(=O)N([C@@H](C)CO)C[C@H](C)[C@@H](CN(C)C(=O)NC(C)C)O3)cc1
- NOMO-1 viab: -15

COc1ccc(NC(=O)COc2cc(C)c(Br)cc2C)c([N+](=O)[O-])c1
- NOMO-1 viab: -8

N#Cc1c(SCC(=O)Nc2c(Cl)cccc2Cl)nc2c(c1-c1cccnc1)CCC2
- NOMO-1 viab: 20

Cc1noc(C)c1NC(=O)N(C)C[C@@H]1Oc2c(NS(C)(=O)=O)cccc2C(=O)N([C@H](C)CO)C[C@H]1C
- NOMO-1 viab: 23

C[C@@H]1CN([C@H](C)CO)C(=O)c2cccc(N(C)C)c2O[C@@H]1CN(C)C(=O)Nc1ccc2c(c1)OCO2
- NOMO-1 viab: -4

O=C(CSc1nnc(-c2ccncc2)n1-c1ccccc1)Nc1ccc(Br)cc1C(F)(F)F
- NOMO-1 viab: -6

C[C@@H]1CN([C@H](C)CO)C(=O)Cc2cc(NC(=O)Nc3ccc(C(F)(F)F)cc3)ccc2O[C@H]1CN(C)Cc1ccc2c(c1)OCO2
- NOMO-1 viab: -13

C[C@@H]1CN([C@H](C)CO)C(=O)c2cccc(NS(=O)(=O)c3cn(C)cn3)c2O[C@H]1CN(C)S(=O)(=O)c1cn(C)cn1
- NOMO-1 viab: 15

Cc1ccc(S(=O)(=O)N(C)C[C@@H]2Oc3ccc(NS(=O)(=O)c4ccc(F)cc4)cc3CC(=O)N([C@H](C)CO)C[C@@H]2C)cc1
- NOMO-1 viab: 16

C[C@@H]1CN([C@H](C)CO)C(=O)Cc2cc(NC(=O)c3ccncc3)ccc2O[C@H]1CN(C)C(=O)NC1CCCCC1
- NOMO-1 viab: 3

COc1ccc(-c2nc(SCC(=O)N3c4ccccc4Sc4ccccc43)n[nH]2)cc1
- NOMO-1 viab: 40

C=C(C(=O)O[C@H]1C/C=C(/C)C[C@H](O)[C@H]2[C@H](C)C(=O)O[C@@H]2/C=C\1C)[C@@H]1CCC(=C)[C@@H]2C[C@H](O[C@@H]3O[C@H](CO[C@H]4OC[C@](O)(CO)[C@H]4O)[C@@H](O)[C@H](O)[C@H]3O)C(=C)[C@@H]2C1
- NOMO-1 viab: 26

C[C@H](CO)N1C[C@H](C)[C@H](CN(C)S(=O)(=O)c2ccc(Cl)cc2)Oc2ccc(NS(=O)(=O)c3cn(C)cn3)cc2CC1=O
- NOMO-1 viab: 14

Cc1cc(C(=O)Nc2cccc3c2O[C@@H](CN(C)C)[C@H](C)CN([C@@H](C)CO)C3=O)n(C)n1
- NOMO-1 viab: 12

CC(C)NC(=O)Nc1ccc2c(c1)CC(=O)N([C@@H](C)CO)C[C@H](C)[C@H](CN(C)C(=O)NC1CCCCC1)O2
- NOMO-1 viab: -12

COc1ccc(OC)c(S(=O)(=O)N2CCC(C(=O)Nc3ccc(Cl)c(C(F)(F)F)c3)CC2)c1
- NOMO-1 viab: 32

COc1ccc(NC(=O)Nc2cccc3c2O[C@@H](CN(C)S(=O)(=O)c2ccc(F)cc2)[C@@H](C)CN([C@H](C)CO)C3=O)cc1
- NOMO-1 viab: -8

C[C@@H]1CN([C@H](C)CO)C(=O)c2cccc(NS(=O)(=O)c3ccccc3)c2O[C@@H]1CN(C)C
- NOMO-1 viab: 24

CC(C)(C)C(=O)c1cn(CC(=O)Nc2ccccc2)c2ccccc12
- NOMO-1 viab: -19

Cc1noc(C)c1S(=O)(=O)Nc1ccc2c(c1)C(=O)N([C@@H](C)CO)C[C@@H](C)[C@@H](CN(C)C(=O)Nc1ccc(F)cc1)O2
- NOMO-1 viab: 9

Cc1noc(C)c1NC(=O)N(C)C[C@H]1OCCCC[C@@H](C)Oc2ccc(NC(=O)NC3CCCCC3)cc2C(=O)N([C@H](C)CO)C[C@@H]1C
- NOMO-1 viab: -10

CC(C)(C)c1ccc(C(=O)Nc2ccc(NC(=O)c3ccccc3F)cc2)cc1
- NOMO-1 viab: 125*

O=c1cc(CSc2cccc3cccnc23)c2ccc(O)cc2o1
- NOMO-1 viab: 110*

C[C@H]1CN([C@@H](C)CO)C(=O)Cc2cc(NC(=O)Nc3ccc(C(F)(F)F)cc3)ccc2O[C@H]1CN(C)C(=O)Nc1cccc2ccccc12
- NOMO-1 viab: 62

C[C@H]1CN([C@@H](C)CO)C(=O)Cc2cc(NC(=O)C3CCCCC3)ccc2O[C@H]1CN(C)CC1CCCCC1
- NOMO-1 viab: 22

Cn1c(SCC(=O)Nc2cccc3ccccc23)nnc1-c1ccc(F)cc1
- NOMO-1 viab: 15

Cc1c(Br)sc2sc(-c3ccnc(SCC(=O)NC(C)C)n3)c(C)c12
- NOMO-1 viab: 115*

COc1cc(OC)cc(C(=O)Nc2ccc(S(=O)(=O)Nc3nc(C)cc(C)n3)cc2)c1
- NOMO-1 viab: -2

CC(C)NC(=O)N(C)C[C@H]1Oc2ccc(N(C)C)cc2CC(=O)N([C@H](C)CO)C[C@H]1C
- NOMO-1 viab: -21

O=C(CSc1n[nH]c(-c2ccccc2)n1)Nc1ccccc1Cl
- NOMO-1 viab: 46

Cc1noc(C)c1NC(=O)Nc1cccc2c1O[C@H](CN(C)S(C)(=O)=O)[C@H](C)CN([C@H](C)CO)C2=O
- NOMO-1 viab: -1

C[C@H]1CN([C@@H](C)CO)C(=O)Cc2cc(NC(=O)Cc3cn(C)c4ccccc34)ccc2O[C@H]1CN(C)S(=O)(=O)c1cccs1
- NOMO-1 viab: 13

Cc1cc(NC(=O)c2nn3cccnc3c2Cl)no1
- NOMO-1 viab: -12

Cc1ccc(S(=O)(=O)Nc2cccc3c2O[C@@H](CN(C)C(=O)Nc2ccc(F)cc2)[C@H](C)CN([C@H](C)CO)C3=O)cc1
- NOMO-1 viab: -20

CCC(=O)Nc1cccc(NC(=O)COc2c(C)cc(C)cc2Br)c1
- NOMO-1 viab: 25

CNC[C@H]1Oc2ccc(NC(=O)CCN3CCOCC3)cc2CC(=O)N([C@@H](C)CO)C[C@H]1C
- NOMO-1 viab: 14

COc1ccc(OC)c(NC(=O)CSc2nc(C)cc(=O)[nH]2)c1
- NOMO-1 viab: 4

C[C@@H]1CN([C@H](C)CO)C(=O)Cc2cc(NC(=O)Nc3cccc4ccccc34)ccc2O[C@H]1CN(C)Cc1ccc(Oc2ccccc2)cc1
- NOMO-1 viab: 49

CNC[C@@H]1Oc2c(NC(=O)Nc3ccc(F)cc3)cccc2C(=O)N([C@H](C)CO)C[C@@H]1C
- NOMO-1 viab: 12

COC(=O)COc1ccc(NC(=O)c2ccc(OC)c([N+](=O)[O-])c2)cc1
- NOMO-1 viab: 121*

COc1ccccc1-n1nnnc1SCC(=O)Nc1ccccc1F
- NOMO-1 viab: 14

CCOC(=O)COc1ccc(C23CC4CC(CC(C4)C2)C3)cc1
- NOMO-1 viab: -13

S=C(Nc1ccc(Cl)cc1Cl)NC(Cn1ccnc1)c1ccccc1 (stereo unspecified)
- NOMO-1 viab: 31

CC(=O)NCCc1nc2cc(NC(=O)c3ccco3)ccc2n1C
- NOMO-1 viab: 12

CN(CC(=O)Nc1cccc(I)c1)S(=O)(=O)c1ccc(Cl)cc1
- NOMO-1 viab: -14

Cc1ccc(S(=O)(=O)N(C)C[C@@H]2Oc3ccc(NC(=O)Nc4ccc(C(F)(F)F)cc4)cc3C(=O)N([C@@H](C)CO)C[C@@H]2C)cc1
- NOMO-1 viab: 83*

CNC[C@H]1Oc2ccc(NC(=O)Cc3ccccc3)cc2C(=O)N([C@@H](C)CO)C[C@@H]1C
- NOMO-1 viab: 7

NNC(=O)CNC(=O)c1ccccc1
- NOMO-1 viab: 43

OCCNC(=S)Nc1ccccc1
- NOMO-1 viab: 3

Cc1noc(C)c1NC(=O)N(C)C[C@@H]1Oc2ccc(NC(=O)Nc3ccc(C(F)(F)F)cc3)cc2CC(=O)N([C@H](C)CO)C[C@@H]1C
- NOMO-1 viab: 5

CCSc1ncc(Cl)c(C(=O)Nc2sc3c(c2C(=O)NCC2CCCO2)CCCC3)n1 (stereo unspecified)
- NOMO-1 viab: 46

N#CC1=C(N)OC(C2CC2)=C(C#N)C1c1ccccc1Cl (stereo unspecified)
- NOMO-1 viab: 57

O=C(COc1cc(O)c2c(=O)cc(-c3ccccc3)oc2c1)c1cccc([N+](=O)[O-])c1
- NOMO-1 viab: -5

In the list so far, these contain an NH in an aromatic ring.
NC(=O)CSc1nc2ccccc2[nH]1
- NOMO-1 viab: 16

COc1ccc(-c2nc(SCC(=O)N3c4ccccc4Sc4ccccc43)n[nH]2)cc1
- NOMO-1 viab: 40

O=C(CSc1n[nH]c(-c2ccccc2)n1)Nc1ccccc1Cl
- NOMO-1 viab: 46

COc1ccc(OC)c(NC(=O)CSc2nc(C)cc(=O)[nH]2)c1
- NOMO-1 viab: 4

New compounds follow:
CC(=O)NCCc1nc2ccccc2n1Cc1ccccc1
- NOMO-1 viab: -2

COc1ccc(CN(C)C[C@@H]2Oc3ccc(NS(=O)(=O)c4ccc(Cl)cc4)cc3C(=O)N([C@@H](C)CO)C[C@H]2C)cc1
- NOMO-1 viab: -8

COc1ccc(NC(=O)N(C)C[C@@H]2Oc3ccc(NC(=O)Cn4cnnn4)cc3C(=O)N([C@H](C)CO)C[C@H]2C)cc1
- NOMO-1 viab: -4

O=C(Nc1ccc2c(c1)OCO2)C(=S)NCc1ccccc1
- NOMO-1 viab: -2

Cc1ccc(S(=O)(=O)N(C)C[C@@H]2Oc3ccc(NC(=O)CCC(F)(F)F)cc3C(=O)N([C@@H](C)CO)C[C@@H]2C)cc1
- NOMO-1 viab: 13

O=C(O)c1c2c(nc3ccccc13)CCC(c1ccccc1)C2 (stereo unspecified)
- NOMO-1 viab: -6

O=C(COc1ccc([N+](=O)[O-])cc1)Nc1cccnc1
- NOMO-1 viab: 7

O=C(CC1NCCNC1=O)Nc1cccc(C(F)(F)F)c1 (stereo unspecified)
- NOMO-1 viab: 11

C[C@H](CO)N1C[C@H](C)[C@H](CN(C)CC2CCCCC2)Oc2ccc(NS(=O)(=O)c3ccccc3)cc2CC1=O
- NOMO-1 viab: 29

C[C@@H]1CN([C@H](C)CO)C(=O)Cc2cc(NC(=O)Nc3ccc(F)cc3)ccc2O[C@@H]1CN(C)CC1CCCCC1
- NOMO-1 viab: 100*

C[C@@H]1CN([C@@H](C)CO)C(=O)c2cccc(NS(=O)(=O)c3ccc(F)cc3)c2O[C@@H]1CN(C)S(=O)(=O)c1cccs1
- NOMO-1 viab: 45

C[C@@H]1CN([C@@H](C)CO)C(=O)c2cc(N(C)C)ccc2O[C@H]1CN(C)C(=O)NC1CCCCC1
- NOMO-1 viab: 6

C[C@H]1CN([C@@H](C)CO)C(=O)c2cccc(NC(=O)Nc3ccc(C(F)(F)F)cc3)c2O[C@@H]1CN(C)Cc1ccc2c(c1)OCO2
- NOMO-1 viab: 109*

CNC[C@H]1Oc2ccc(NS(=O)(=O)c3ccc(C)cc3)cc2C(=O)N([C@H](C)CO)C[C@H]1C
- NOMO-1 viab: -3

CCC(C)/C=C/C1=CC2=C(Cl)C(=O)C3(C)OC(=O)C(C(=O)C(C)C(C)O)C3C2=CO1 (stereo unspecified)
- NOMO-1 viab: 30

A portion of the library; count on the stated rates, not on these rows.
